TRPV1 PAM – human TRPV1 potentiation. Q8NER1. TRPV1-expressing cells, Fluo-8 calcium influx, capsaicin EC20 potentiation; host cell line not named in the record; control for the full effect not named in the record. potentiation, % at 8.33 µM. actives 0.02% (n = 320,000). AID 540277; active means potentiation above 80%; inconclusive means 30% to 80%; inactive means below 30%; also: 0% is about no effect
Target sequence (Q8NER1 whole entry, looked up): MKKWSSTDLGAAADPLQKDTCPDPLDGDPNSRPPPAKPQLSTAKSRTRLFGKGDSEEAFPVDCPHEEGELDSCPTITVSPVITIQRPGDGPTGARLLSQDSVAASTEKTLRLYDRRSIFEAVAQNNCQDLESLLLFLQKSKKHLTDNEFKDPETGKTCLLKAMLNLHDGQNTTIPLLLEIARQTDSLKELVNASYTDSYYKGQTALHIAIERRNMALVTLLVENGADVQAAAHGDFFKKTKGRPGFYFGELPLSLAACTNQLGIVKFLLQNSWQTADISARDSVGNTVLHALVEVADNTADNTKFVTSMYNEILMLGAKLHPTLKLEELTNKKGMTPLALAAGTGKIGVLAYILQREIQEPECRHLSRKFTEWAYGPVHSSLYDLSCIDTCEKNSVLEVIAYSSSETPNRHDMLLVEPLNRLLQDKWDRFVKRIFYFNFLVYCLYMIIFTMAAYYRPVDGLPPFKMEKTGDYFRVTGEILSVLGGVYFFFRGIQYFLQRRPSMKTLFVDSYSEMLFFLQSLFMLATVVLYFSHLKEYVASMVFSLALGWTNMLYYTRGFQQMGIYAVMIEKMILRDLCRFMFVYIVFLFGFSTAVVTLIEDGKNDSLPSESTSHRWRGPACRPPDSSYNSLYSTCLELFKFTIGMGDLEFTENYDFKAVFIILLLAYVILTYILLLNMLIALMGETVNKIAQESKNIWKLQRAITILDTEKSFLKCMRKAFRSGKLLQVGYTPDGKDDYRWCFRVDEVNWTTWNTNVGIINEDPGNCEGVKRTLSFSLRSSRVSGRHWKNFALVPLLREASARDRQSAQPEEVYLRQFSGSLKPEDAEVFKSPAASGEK
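Fluo-8 calcium influx in TRPV1-expressing cells, kinetic read (ex 480/em 520 nm). Compound added and read 3 min for agonist activity, followed by capsaicin at EC20 final and 2 min further read for enhancement.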
Sfp inh – blocks B. subtilis Sfp PPTase activity; Q9F4F7; Biochemical Sfp PPTase activity, qHTS; Potency, µM, for inactives: max response, negative = inhibition, hits mostly inhibitors; actives 3.5% (n = 310,000); active = well fitted inhibition curve with a large enough effect; inconclusive = small, poorly fitted or top-dose-only effect, or another doubt; inactive = no such curve, though single readings can be large or run the other way;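 also: the enzyme is Sfp with the accession as filed and its product quenches rhodamine fluorescence; potency is read from the fitted curve at half-maximal effect; 0% = enzyme reaction without inhibitor and -100% = no enzyme wells; top concentration of the series not given in the record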
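Reaction rates are the 30-min fluorescence difference (ex 525, em 598 nm) in wells containing 15 nM Sfp, 5 uM rhodamine-CoA and 12.5 uM BHQ-2-YbbR at pH 7.6 with 10 mM MgCl2.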
ClpP mod – qHTS Assay for Activators of ClpP; actives 1.9% (n = 340,000); AID 651965, 2013; ATP-dependent Clp protease proteolytic subunit (Bacillus subtilis (strain 168)), P80244; Potency, µM (highest dose often 57.5 µM), for inactives: top-dose activity change, negative = active; purified B. subtilis ClpP, FRET peptide cleavage, 20 min; active = well fitted falling curve with a large enough effect; inconclusive = small, poorly fitted or top-dose-only effect; inactive = no such curve, though single readings can be large or run the other way; also: potency is read from the fitted curve at half-maximal effect; the source files actives as falling curves though it sought activators and does not explain the sign; nearly all actives have a fitted effect of over 65% in size; many hits overshoot -100%
Target sequence (P80244 whole entry, looked up): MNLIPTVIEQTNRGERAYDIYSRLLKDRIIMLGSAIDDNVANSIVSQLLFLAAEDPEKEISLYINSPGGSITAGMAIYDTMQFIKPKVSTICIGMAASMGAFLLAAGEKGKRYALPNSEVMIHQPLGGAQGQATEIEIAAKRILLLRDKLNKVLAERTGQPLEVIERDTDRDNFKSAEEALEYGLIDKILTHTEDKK
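ClpP 10 microg/mL final, pH 8 Tris/KCl buffer with BSA, glycerol, Tween-20; compound pinned in; FRET-FV substrate; RT 20 min; Ex320/Em430; ΔFRET vs ADEP 5.8 microM, DMSO, no enzyme.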
D2 potentiator – potentiates the human D2 dopamine receptor allosterically; P14416; DiscoveRx D2 beta-arrestin cells, luminescence, 90 min; 100% = 57 uM dopamine signal; potentiation, % (test concentration not listed); actives 0.23% (n = 360,000); active = potentiation of 50% or more; inconclusive = 30% to 50%; inactive = 30% or less;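 also: compound concentration not given in the record; tested on top of an EC20 dose of dopamine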
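D2 cells co-treated with compound plus 50 nM dopamine (EC20) for 90 min at 37 deg C to detect potentiation. Beta-arrestin recruitment was read as enzyme-fragment luminescence after 1 h at ambient temperature. Full response was set by 57 uM dopamine.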
gsp ag – activates gsp, the McCune-Albright syndrome mutation. gsp mutant cells, cAMP HTRF, 30 min; control for the full effect not named in the record. actives 0.13% (n = 340,000). Potency, µM (doses to about 76.9 µM), without a hit: at the top dose activation (cAMP increase), actives largely listed as activators. AID 624287; active = well fitted activation curve with a large enough effect; inconclusive = small, poorly fitted or top-dose-only effect, or another doubt; inactive = no such curve, though single readings can be large or run the other way; cell line not stated here;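 also: phosphodiesterase inhibitor Ro 20-1724 added with compounds to block cAMP breakdown; potency is read from the fitted curve at half-maximal effect; nearly all actives have a fitted effect of over 60% in size; about a fifth of the inactives were tested at one dose only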
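Cells stably selected in G418 were plated at 2000/well, grown 16-24 hr, then given compounds in DMSO with the PDE inhibitor […] (300 uM solution added) for 30 min at 37C; cAMP was read by HTRF.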
Menin-MLL FL inh – menin-MLL binding inhibition, fluorescein peptide; Fluorescence polarization, fluorescein-MLL peptide displacement from menin; 290,000 tested, under 10 active; FP activity change, % at 61.4 µM; inconclusive = falling polarisation curve, or a change in total fluorescence; inactive = total fluorescence flat and polarisation flat or rising; no compound was filed as active; the % refers to the polarisation; negative = inhibition;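 also: % of control where 0% means no effect; inhibitors lower the polarisation; unlabelled MLL peptide was the positive control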
gsp antagonist – gsp mutant antagonism; gsp-mutant cells, cAMP HTRF, 30 min; control for the full effect not named in the record; Potency, µM (top dose mostly 76.9 µM), for inactives: top-dose activity change, negative = inhibition, hits mostly inhibitors; actives 0.4% (n = 340,000); active = falling curve of any shape with a large fitted effect; inconclusive = falling curve, mostly with a smaller effect; inactive = flat or rising curve; cell line not stated here;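 also: intracellular cAMP measured with PDE inhibitor Ro 20-1724 present during compound exposure; potency is read from the fitted curve at half-maximal effect; % is scaled to controls: 0 for no effect and ±100 for the full control effect; nearly all actives have a fitted effect of over 65% in size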
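HTRF cAMP measurement after 30 min RT detection following 30 min, 37C compound treatment alongside […] (added as 300 uM solution) in G418-selected cells seeded at 2000/well and grown 16–24 h.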
The depositor's hits bear a star; ? = inconclusive; . = not tested or not shown; [ ] = dose if it differs, or a comment.

SMILES	TRPV1 PAM	Sfp inh	ClpP mod	D2 potentiator	gsp ag	Menin-MLL FL inh	gsp antagonist
C=CCN1C(=O)C2(c3ccccc31)C1CCCC=C1C(C#N)=C(N)C2(C#N)C#N (stereo not given)	4.0	-12.4%	1.7%	1.0	22.6%	?	-3.7%
C[C@@H]1CN([C@@H](C)CO)C(=O)CCCn2nncc2CO[C@H]1CN(C)S(=O)(=O)c1ccc2c(c1)OCCCO2	.	.	-2.4%	-8.2	-33.9%[inhibitor]	.	.
O=C(CSc1nc(-c2ccccc2)cs1)NCc1ccco1	3.7	-12.3%	-10.5%	-15.8	?	1.5	-3.2%
CN(CC(=O)Nc1ccc(F)cc1)C(=O)c1cn(-c2ccccc2)nc1-c1cccs1	-9.7	.	-5.8%	-2.7	?	.	?
O=C(NC(CCl)c1ccccc1)c1ccc(Cl)cc1 (stereo not given)	-17.7	-5.1%	.	-6.6	9.0%[15.4 µM]	4.3	.
O=C(Nc1cccc2c1CCCC2)c1ccncc1	21.9	-2.9%	-0.2%	-1.2	-24.9%	0.0	1.8%
O=C1CC2(CCN(C(=O)c3ccccc3Cl)CC2)Oc2ccccc21	-2.4	.	.	-6.1	9.8%[15.4 µM]	.	-17.2%
CC1=C(C(=O)Nc2cccc(C(=O)NC3CCCCC3C)c2)SCCO1 (stereo not given)	-10.3	5.2%	-0.2%	-12.2	32.1%	.	-5.8%
C[C@H]1NC(=O)[C@]2(C)[C@@H](c3ccccc3)[C@H]3COc4ccccc4[C@H]3N2C1=O	.	.	-9.6%	-6.1	.	.	9.6%
CC(C)(C)NC(=O)NC(=O)COC(=O)Cc1ccc(Cl)cc1Cl	-5.1	-0.5%	.	7.2	11.7%[15.4 µM]	3.3	9.4%
CCCCCOc1ccc(N2C(=O)C(C)CNC2=S)cc1 (stereo not given)	-4.5	17.7%	.	.	.	-4.8	.
COc1ccc([N+](=O)[O-])cc1N(CC(O)CN(C)C)S(=O)(=O)c1ccccc1 (stereo not given)	-2.5	3.2%	0.5%	-20.1	-35.8%[inhibitor]	2.6	17.0%
CCC(=O)Nc1nnc(/C=C/c2ccccc2)s1	?	8.4%	3.7%	1.7	-9.0%	-8.8	1.5%
CC(Cc1cccs1)NC(=O)Nc1ccc(Cl)c(Cl)c1 (stereo not given)	2.3	18.8%	-0.4%	-11.4	-49.4%[inhibitor]	2.3	-21.4%
Cn1cnc(S(=O)(=O)Nc2ccccc2C(=O)NCC2CC2)c1	0.3	-1.0%	-1.7%	-24.8	3.4%[15.4 µM]	0.8	7.1%
Cc1ccccc1CNC(=O)CN1C(=O)c2ccccc2S1(=O)=O	0.5	9.1%	.	-3.9	-2.9%[15.4 µM]	2.8	3.9%
Cc1ccc(S(=O)(=O)Nc2cc(NC(=O)CN3CCOCC3)ccc2Cl)cc1	1.5	-7.9%	-3.7%	-0.9	11.7%	2.3	-14.2%
Cc1ccc(C)c2c1cc(C)c1nnc(SCc3ccccn3)n12	5.6	15.4%	-1.8%	-12.7	-14.5%	3.5	-2.8%
CCN(CC)c1ccc(-c2nnc(SCC(=O)Nc3ccccc3C#N)n2-c2ccccc2)cc1	6.3	17.1%	?	7.7	-21.3%	2.5	?
Cc1cc(NC(=O)NC(=O)c2ccc(F)cc2F)n[nH]1	.	20.5%	1.1%	-19.9	-1.8%	-3.6	9.9%
COc1cccc(-n2c(CN3CCN(c4ccccn4)CC3)nc3ccc([N+](=O)[O-])cc3c2=O)c1	2.8	14.1µM*	-10.4%	-10.3	19.8%	-1.6	-13.8%
Cc1ccc(-c2n[nH]c(S(C)(=O)=O)c2C#N)cc1	-20.2	6.9%	-1.0%	-4.4	-2.7%[15.4 µM]	2.5	-5.7%
Cc1ccc(C)c(N2CCN(C(=O)c3ccc(CS(=O)Cc4cccc(Cl)c4)o3)CC2)c1 (stereo not given)	6.4	-19.9%	-1.5%	-7.5	-6.7%	1.7	-24.2%
CCOC(=O)c1cccc(NC(=O)CN2C(=O)C3CC=CCC3C2=O)c1 (stereo not given)	4.3	7.0%	-2.6%	-2.9	?	-2.2	-1.0%
CC1(c2ccc(O)cc2)NC(=O)N(c2ccccc2)N1 (stereo not given)	16.3	13.6%	.	0.6	-0.3%[15.4 µM]	-9.0	4.9%
CCOc1cc(C=NN2CCCCCC2)ccc1O	.	.	2.0%	51.4*	1.0%[15.4 µM]	.	1.9%
O=C(O)c1cccnc1Sc1ccccc1Cl	-6.0	-4.3%	-0.2%	-0.6	-5.6%	0.6	-8.5%
Clc1ccccc1/C=C/c1ccnc2ccccc12	17.5	?	3.6%	-3.4	-1.1%	-16.4	-6.6%
O=C(NC(=O)c1ccc(F)cc1)Nc1nc(-c2cccs2)cc(C(F)(F)F)n1	-0.9	13.9%	4.2%	-5.1	0.6%	-0.8	0.5%
COc1cc(SC)ccc1C(=O)NC(C)C	-1.8	7.7%	.	-3.9	-2.2%[15.4 µM]	2.9	4.2%
COc1ccccc1NS(=O)(=O)c1cccc(C(=O)N/N=C/c2ccc(C)o2)c1	2.5	-20.5%	-7.2%	-11.1	-30.9%[inhibitor]	3.0	-0.5%
Cc1c(Cl)ccc(S(=O)(=O)N2CCN=C2c2ccccc2)c1Cl	15.7	-26.9%	-3.1%	-9.4	0.4%	0.6	12.0%
COc1ccccc1NC(=O)N1CCc2[nH]c3ccc(F)cc3c2C1	1.8	5.8%	-3.3%	5.7	21.1%	-0.7	-24.8%
Cn1cc(Cc2ccccc2)c(=O)c(Cc2ccccc2)c1	.	.	-0.7%	-19.2	-40.0%[inhibitor]	.	-14.3%
OCCNc1nc(-c2ccccc2)c2ccccc2n1	5.6	-2.4%	?	-1.4	-15.5%	2.0	13.2%
COc1ccc(-c2nc(-c3ccccc3)c(-c3cc([N+](=O)[O-])ccc3C)[nH]2)cc1OC	-2.3	4.4%	-2.0%	-8.9	8.1%	1.1	-3.0%
O=C(CN1CCN(S(=O)(=O)c2ccccc2)CC1)Nc1ccnn1C1CCCC1	5.2	.	1.4%	4.6	-16.8%	.	-19.6%
COc1ccc(N2CCOCC2)c(NC(=O)c2cccs2)c1	1.9	4.6%	-0.4%	10.2	43.4%	.	-0.5%
Cc1cc(C)c(C#N)c(N2CCN(CCOc3ccc(Cl)cc3)CC2)n1	12.2	?	?	-42.1	-36.1%[inhibitor]	4.2	-25.1%
CC(=O)O[C@H]1CC[C@@]2(C)[C@@H](CC[C@@H]3[C@@H]2CC[C@]2(C)[C@@H](C(C)(C)O)C[C@@H]32)C1	16.9	.	0.3%	-6.0	-22.0%	.	10.4%
C=C1CCC[C@]2(C)C[C@H]3OC(=O)C(CNCCN(C)C)[C@H]3CC12 (stereo not given in full)	?	-5.2%	0.9%	3.7	-24.0%	-3.3	-1.0%
O=C(CCn1cnc2ccccc2c1=O)Nc1ccc2c(c1)OCCO2	7.7	6.4%	0.4%	-8.9	18.8%	3.1	-7.8%
Cc1cccc(-n2nnnc2SCC(=O)NC2CCCC2)c1	.	.	.	-6.4	1.5%	.	6.9%
CCCCN(C(=O)c1cccc(S(=O)(=O)N(C)c2ccc(C)cc2)c1)c1c(N)n(CCCC)c(=O)[nH]c1=O	2.7	.	11.0%	-17.5	-29.7%	.	3.5%
CCn1c(C)nc2cc(C(=O)OCCC(F)(F)F)ccc21	4.7	8.7%	-4.9%	9.4	29.0%	-0.8	-15.4%
O=C(C1CCCO1)N1CCN(C(=S)Nc2ccc(Cl)c(Cl)c2)CC1 (stereo not given)	-18.1	8.2%	.	5.3	?	2.2	0.4%
COc1ccc(CCN(C)C(=O)CN2C(=O)NC3(CCCCC3C)C2=O)cc1OC (stereo not given)	-2.7	.	-0.2%	-8.1	4.3%	.	17.2%
Cc1ccc(S(=O)(=O)NNC(=O)CCC(=O)Nc2ccc(C)cc2C)cc1	-3.4	-5.2%	0.3%	9.8	-28.4%	-3.2	7.2%
Cc1ccc(N=Nc2cc(C)ccc2N)cc1	-5.9	-7.8%	-0.5%	-16.1	-26.4%	2.7	-0.6%
O=C1Nc2ccccc2Oc2cc([N+](=O)[O-])cc(Oc3ccccc3)c21	5.7	-19.2%	2.5%	-8.5	14.1%	?	-4.6%
CCCCC(=O)N/N=C(\C)CC(=O)Nc1ccccc1Br	?	9.4%	1.1%	-15.9	10.3%	1.3	3.5%
Cn1nccc1C(=O)Nc1ccc(S(=O)(=O)N2CCCC2)cc1	-18.8	3.7%	.	1.6	-6.2%[15.4 µM]	.	-8.5%
Cc1ccc(NC(=O)CSc2nc3ccccc3c(=O)n2CCCC(=O)N2CCCC2)cc1	-2.1	10.9%	0.3%	5.4	-27.1%	4.4	-12.9%
Cc1c(C(=O)N/N=C/c2ccc(Cl)cc2)[nH]c2ccc(Cl)cc12	-5.5	?	-16.8%	-6.8	-62.6%	10.3	18.5%
O=C(COc1ccc(S(=O)(=O)N2CCOCC2)cc1)NCC1CCCO1 (stereo not given)	5.6	15.4%	-4.3%	3.3	-15.1%	0.1	13.6%
COc1ccc(N2CCN(C(=O)Cn3cncn3)CC2)cc1	0.9	14.3%	-1.8%	-5.8	11.8%[15.4 µM]	1.2	-6.9%
N/C(=N/OCC(=O)Nc1cccc2ccccc12)c1nonc1N	-8.8	-11.1%	-3.0%	1.3	9.8%	1.1	-9.2%
COc1ccc(Oc2ccccc2C=O)cc1	6.1	3.8%	0.0%	-13.5	?	5.1	15.3%
CCCCn1c(N)c(N(CCOC)C(=O)COC(=O)/C=C/c2ccc(Br)cc2)c(=O)[nH]c1=O	11.2	8.1%	?	-13.7	-1.9%[15.4 µM]	.	8.3%
COC(=O)N/N=C/c1ccc(-c2ccc(Cl)cc2Cl)o1	15.3	-2.1%	.	-1.5	17.1%	-1.1	-14.1%

(cont.)
SMILES	TRPV1 PAM	Sfp inh	ClpP mod	D2 potentiator	gsp ag	Menin-MLL FL inh	gsp antagonist
N[C@@H](Cc1ccccc1)C(=O)N1CCC(C(=O)NCC(=O)NCC(=O)O)CC1	3.1	13.2%	-0.1%	-6.6	-1.1%[15.4 µM]	-9.2	17.1%
COc1cc(-c2nnc(COC(=O)c3cc(C)nc4ccc(C)cc34)o2)cc(OC)c1OC	11.5	-0.4%	-11.6%	-4.3	24.7%	-0.2	3.3%
COc1ccc(N(C(C)C(=O)N2CCCC2)S(C)(=O)=O)cc1 (stereo not given)	-3.0	-0.2%	-0.4%	1.3	-0.4%	-5.5	3.8%
Cc1cccnc1CNC(=O)C1CCC(=O)N(CCc2cccc(F)c2)C1 (stereo not given)	5.1	-2.9%	1.2%	-4.2	-3.1%	0.9	11.9%
